NPYLR7 ag: mosquito NPYLR7 agonism; HEK293T NPYLR7/Galpha15, GCaMP6s calcium fluorescence; activation, % at 10 µM; 270,000 compounds, 0.15% hits; in the data active = activation above about 40%;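 note: 0% = vehicle and 100% = reference agonist at the receptor; some compounds past the cut are filed as inactive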
NPYLR7 ag max-min: second read-out of NPYLR7 ag, no call of its own (marks repeat the call); activation, %; measured here: Max-Min RFU normalised activation; some inactives read as strong as hits;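 span of the calcium signal over five minutes; 0% = vehicle and 100% = native peptide agonist; compound fluorescence can raise it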
Starred values were filed as active, the others as inactive; & = joins results of further samples. The list is partial (hit frequency here may not be typical).

SMILES	NPYLR7 ag	NPYLR7 ag max-min
Cc1cc(C)cc(-n2c(C)cn3c4c(=O)n(CC(C)C)c(=O)n(C)c4nc23)c1	5	4
Cc1ccc(-c2c(C)oc(C)c2C(=O)N2CCC(NC(=O)OC(C)(C)C)C2)cc1 (stereo not drawn)	0	-6
Cc1cccc(C)c1OCC(=O)NCCSCC(C)(C)O	6	4
Cc1sc(=NC(=O)c2ccccc2F)n(CC(=O)NCCN(C)C)c1C	3	1
CN(C)c1ccc(CN(CC(F)(F)F)C(=O)Cn2cnnn2)cc1	20	10
Cc1cc(C(F)(F)F)c(C#N)c(SCc2nnsc2Cl)n1	0	28
COc1cc(NC(=O)N(CC(=O)N2c3ccccc3-n3cccc3C2c2cccc(C)c2)C2CC2)cc(OC)c1 (stereo not drawn)	7	21
CCOCCCN1C(=O)c2ccccc2C1Nc1ccc(C(=O)NOCC)cc1 (stereo not drawn)	6	7
O=S(=O)(Nc1ccc(S(=O)(=O)Nc2nccs2)cc1)c1ccc(F)cc1	24	16
CCOc1ccccc1CN(CC)C(=O)c1occc1C	-2	-8
Cc1cc(SCc2n[nH]c(=S)o2)nc(N2CCCC2)n1	0	4
O=C(NCCc1ccccc1)N1CCCCC1CCn1cccn1 (stereo not drawn)	19	16
CCC1CN(Cc2c(C)cc(O)cc2C)CCN1C(C)C (stereo not drawn)	-5	-12
O=C(Nc1ccc(SCc2cccnc2)nn1)c1ccco1	-2	-4
O=C1N=c2ccccc2=C1c1sc(=S)n(NC(=O)c2ccncc2)c1O	3	8
CCc1ccc(CN(C)Cc2nc(COc3ccccc3)no2)nc1	3&-10	1&-12
O=C(Nc1ccc(F)cc1)N1CCN(Cc2ccc3c(c2)CCO3)CC1	-5	-8
COCCN1CCC(CN2CCN(c3ncnc(C)c3C)CC2)CC1	10	6
COCc1cc(N2CCOCC2)nc(SCc2ccc(C(=O)NCC3CCCO3)cc2)n1 (stereo not drawn)	-5	2
CCOCCOC(=O)C1=C(C)NC2=C(C(=O)CCC2)C1c1ccc(CC)cc1 (stereo not drawn)	-6	-13
CCC(C)(C)C(=O)Nc1nc2c(s1)C(=O)CC(C)(C)C2	3	-2
CC(C)CCN1CCCn2cccc2C1c1cccc(O)c1 (stereo not drawn)	22	21
CCc1[nH]n(-c2cc(C)ccc2C)c(=O)c1C1=C(N2CCCCC2)C(=O)N(C(C)C)C1=O	-5	1
O=C(COc1ccccc1)N1CCCN(c2nc3ccccc3nc2-c2ccccc2)CC1	11	15
COc1cc(NC(=O)CCC2CCCN(C(=O)c3c[nH]c4ccccc34)C2)cc(OC)c1 (stereo not drawn)	-3	-8
Cc1ccccc1NC(=O)COc1ccc(C)c2c1C(=O)CC2C (stereo not drawn)	0	-3
Cc1ccc(-n2nc(-c3ccccc3)c3c2N(CC(=O)NCc2cccnc2)C(=O)CSC3c2ccccc2C)cc1 (stereo not drawn)	10	21
CC(=O)c1cccc(-c2ccnc3c2CC(C(=O)NCC2CC2)O3)c1 (stereo not drawn)	2	0
CCOc1cc(CN2CCCn3cccc3C2c2ccc([N+](=O)[O-])cc2)ccc1O (stereo not drawn)	0	8
O=C(NC(C(=O)N1CCOCC1)C1CCN(C(=O)Cc2ccccc2)CC1)c1ccccc1 (stereo not drawn)	-9	-8

A draw from above in order of heavy-atom count, rising.
SMILES	NPYLR7 ag	NPYLR7 ag max-min
CCC(C)(C)C(=O)Nc1nc2c(s1)C(=O)CC(C)(C)C2	3	-2
O=C(NC(C(=O)N1CCOCC1)C1CCN(C(=O)Cc2ccccc2)CC1)c1ccccc1 (stereo not drawn)	-9	-8
Cc1ccc(-n2nc(-c3ccccc3)c3c2N(CC(=O)NCc2cccnc2)C(=O)CSC3c2ccccc2C)cc1 (stereo not drawn)	10	21

Additional results.
SMILES	NPYLR7 ag	NPYLR7 ag max-min
CCOC(=O)c1c(C)n(OC)c2ccc3nonc3c12	4	0
CCOC(=O)CC(=O)Nc1ccc(-c2onc3c2CCc2ccccc2-3)cc1	3	-2
CCc1nc2n(n1)C(=O)C(C(c1ccccc1F)N1CCN(Cc3ccccc3)CC1)S2 (stereo not drawn)	-2	-6
NCc1ccccc1COc1ccccc1Cl	1	0
C=C(Br)CSc1nc2nc(C)c(C)c(C)n2n1	7	1
NC(=O)c1cnn2cc(-c3[nH]ncc3[N+](=O)[O-])cnc12	-9	-14
O=C1CCCN1CCCNS(=O)(=O)c1ccc2c(c1)CN(C(=O)C(F)(F)F)CC2	-1	0
COC(=O)CSc1nnc(-c2cccc(C)c2)n1-c1ccc(C)cc1	26	34
CCOC(=O)C1(CCOC)CCN(Cc2cnn(-c3cccc(Cl)c3)c2)CC1	6	3
Cc1nn(C)c(Cl)c1C(=O)N(C)Cc1ccc(Cl)s1	9	3
CSc1nc(C(=O)N2CCC(N3CCC(C(=O)NC(C)C)CC3)CC2)cs1	2&0	0&-3
C=C(C)Cn1c(SCC(O)CCl)nc2c1c(=O)[nH]c(=O)n2C (stereo not drawn)	-5	-1
Cc1cc(NC(=O)CN2CC(C)CC(C)C2)no1 (stereo not drawn)	5	11
CCC(CNC(=O)c1n[nH]c(=O)[nH]1)Oc1ccccc1C(F)(F)F (stereo not drawn)	5	3
O=C(Cn1cnc2ccccc21)NN=Cc1ccccc1O	-6	-12
CSc1nccc(NCC2CNCCO2)n1 (stereo not drawn)	10	3
O=C(CCn1c(=O)oc2ccccc21)Nc1cccc(F)c1	7	3
COc1cc(OC)c(C2=CCN(C(=O)c3cc(C)oc3C)CC2)c(OC)c1	-5	-6
COc1ccc(-c2onc3c2CCC3)cc1NC(=O)/C=C/c1cccc(C(F)(F)F)c1	3	1
CC(C)NCC(O)Cn1c2ccc(Cl)cc2c2cc(Cl)ccc21 (stereo not drawn)	-2	-2

Random excerpt: 2 compounds from above, in no set order.
SMILES	NPYLR7 ag	NPYLR7 ag max-min
CCC(CNC(=O)c1n[nH]c(=O)[nH]1)Oc1ccccc1C(F)(F)F (stereo not drawn)	5	3
CC(C)NCC(O)Cn1c2ccc(Cl)cc2c2cc(Cl)ccc21 (stereo not drawn)	-2	-2

Back to the main list; the 6 compounds before the break are reprinted first.
SMILES	NPYLR7 ag	NPYLR7 ag max-min
O=C(Cn1cnc2ccccc21)NN=Cc1ccccc1O	-6	-12
CSc1nccc(NCC2CNCCO2)n1 (stereo not drawn)	10	3
O=C(CCn1c(=O)oc2ccccc21)Nc1cccc(F)c1	7	3
COc1cc(OC)c(C2=CCN(C(=O)c3cc(C)oc3C)CC2)c(OC)c1	-5	-6
COc1ccc(-c2onc3c2CCC3)cc1NC(=O)/C=C/c1cccc(C(F)(F)F)c1	3	1
CC(C)NCC(O)Cn1c2ccc(Cl)cc2c2cc(Cl)ccc21 (stereo not drawn)	-2	-2
COc1ccc(CN(CC(C)C)C(=O)c2ccoc2)cc1	6	8
COCCn1c(SCC(=O)c2ccc(Cl)cc2)nc2c(c1=O)SCC2	-3	-5
CCCc1nc(N(C)Cc2cccc(-n3cccn3)c2)c2cnn(C)c2n1	-2	-4
CSCCC(C(=O)OCn1nnc2ccccc2c1=O)N1C(=O)c2ccccc2C1=O (stereo not drawn)	-1	-3
NS(=O)(=O)c1cc(F)cc(NC(=O)c2ccc(C(F)(F)F)cc2)c1	0	13
CN(C)c1ccc(C#N)c(NS(=O)(=O)c2ccc(C#N)cc2F)c1	-20&0	-20&-1
N#Cc1c(Cl)nsc1NCc1cccc(NC(=O)C2CCC2)c1	0	-2
O=C(Nc1nccs1)C1CC2CCC1C2 (stereo not drawn)	8	5
Cc1ccc(CN2CCCC(CNC(=O)C3(c4ccc(Cl)cc4)CC3)C2)o1 (stereo not drawn)	10	5
N#Cc1c(N=CC(Br)=Cc2ccccc2)sc2c1CCC2	4	4
O=c1[nH]c2cc(S(=O)(=O)CCO)ccc2o1	14	11
COc1ccc(C(=O)N2CCC3(CC2)OCC(C(=O)NCc2ccco2)N3C(=O)c2ccccc2)cc1OC (stereo not drawn)	2	15
CC(c1ccccc1)N1CCC(Nc2cc(Cl)nc(N)n2)C1 (stereo not drawn)	0	-1
CN1C(=O)/C(=C\C=C\c2ccc(Br)cc2)SC1=S	-1	-9
C[C@@]1(O)CCN(C(=O)CN2C(=O)CNC2=O)C[C@@H]1Cc1ccccc1	-2	-5
CC(=O)Oc1ccc(Br)c2cccnc12	-4	-9
CCN1C(=O)NC(c2cc(Br)c(O)c(OC)c2)C(C(=O)OCCOC)=C1C (stereo not drawn)	-2	-5
CCC(CC)CS(=O)(=O)NC(=O)c1cccn1C	13	9
COc1ccc(S(=O)(=O)NC(C)c2ccc(C(F)(F)F)cc2)cc1OC (stereo not drawn)	8	7
Cn1cnc2c1c(=O)n(CCCOC(=O)C1CCCCC1)c(=O)n2C	-1	-1
COc1cccc(CC2(CO)CCCN(CC#Cc3ccccc3)C2)c1 (stereo not drawn)	4&-8	2&-10
S=C(CNc1ccc(Cl)cc1)N=P(c1ccccc1)(N1CCOCC1)N1CCOCC1	5	2
O=C1CN(S(=O)(=O)CCOc2ccccc2)CC(=O)N1CCc1ccccc1	-5	-5
O=C(Cn1cccn1)N1CCCC(N2CCN(Cc3ccc4c(c3)OCO4)CC2)C1 (stereo not drawn)	5&14	4&9
CCOC(=O)C1(CCCc2ccccc2)CCN(C(=O)c2cc(C)nn2CC)CC1	12	1
Cc1cccc(C(C)(C)CNC(=O)N2CCCC(N3CCCC3)C2)c1 (stereo not drawn)	-21	-23
CC(c1nc(-c2ccc(Cl)cc2)no1)S(=O)(=O)CCO (stereo not drawn)	-24&6	-25&5
CN(C)c1ccc(CNCC2(c3ccnc(-c4ccc(Cl)cc4)c3)CC2)cc1	12	14
O=[N+]([O-])c1ccc2[nH]c(O)c(N=Nc3ccc(F)c(Cl)c3)c2c1	-4	-8
Cc1cccc(N2CCN(C(=O)c3cccnc3)CC2)c1C	-3	-4
CCc1nc2ccccc2n1CCC(=O)N1CCC(CO)(Cc2cccc(C(F)(F)F)c2)CC1	12	2
CC1CN(c2cc(Oc3cccc(F)c3)ncn2)CCN1C(=O)c1cccc([N+](=O)[O-])c1 (stereo not drawn)	7	6
Cc1ccc(C(NC(=O)C2CCN(CCc3ccccc3)CC2)c2ccccn2)cc1 (stereo not drawn)	-3	0
Cc1ccccc1CC1(CO)CCCN(C(=O)CN2CCOc3ccccc3C2)C1 (stereo not drawn)	1&19	-1&18
CCC(CC)NC(=O)c1cc2c(C)nn(C)c2s1	-3	-3
CC(=C(C#N)C#N)c1ccccc1	0	-3
COCCn1c(SCc2ccccc2Cl)nc2c1c(=O)[nH]c(=O)n2C	-7	9
CCN(CC)CCN(CC(C)C)C(=O)Cn1nc(C)cc1C	4	1
CC(=O)N(Cc1c(-c2ccc(C)cc2)noc1N1CCCC1)C(C)C	16	15
Cc1ccccc1N1CCN(C2CCCN(C(=O)CSc3ccccn3)C2)CC1 (stereo not drawn)	9	8
O=C(c1csc(-c2cccs2)n1)N(CCC(F)(F)F)CC1CC1	2	-1
Cc1cc2c(Nc3c([N+](=O)[O-])ccc4c3=NC3(CCCCC3)N=4)cccc2nn1	-3	-5
CCOC(=O)c1cc(C(C)(C)C)n(C2CCN(S(=O)(=O)c3ccc(Oc4ccccc4)cc3)CC2)n1	17	5
Cc1ccccc1N1CCN(C(=O)CC2C(=O)NCCN2Cc2cccc(F)c2)CC1 (stereo not drawn)	2	-4
O=[N+]([O-])c1cccc(-c2nc(-c3ccccc3Cl)no2)c1	5	6
COC(=O)c1ccc(S(=O)(=O)N2CCN(Cc3ccncc3)CC2)cc1	-6	-7
O=C(c1cncn1-c1ccc(F)cc1)N1CCN(S(=O)(=O)c2cc(F)ccc2F)CC1	-6	-4
COc1ccc(CCNC(=O)CN2CCN(C(N)=O)CC2)cc1	8	6
CC1Sc2ccc(C#N)cc2N(Cc2ccccc2)C1=O (stereo not drawn)	-1	-4
COc1cccc(C(CC(=O)N2CCC(C)CC2)c2c[nH]c3ccccc23)c1OC (stereo not drawn)	1	3
The results go on.
SMILES	NPYLR7 ag	NPYLR7 ag max-min
CNc1ccc(/C=C\CCCO)cn1	2	0
O=C(NCC(=O)N1CCOC(Cc2ccccc2)C1)c1ccco1 (stereo not drawn)	24	29
O=C(O)c1cccnc1CN1CCN(c2cccc(Cl)c2Cl)CC1	0	-3
CCCCCc1ccc(C(=O)Oc2ccc(-c3nc4ccc(Br)cn4c3NC(C)(C)CC(C)(C)C)cc2OC)cc1	-11	1
CC(C)N1CCC1(C)C(=O)Nc1cc(-c2ccccc2)nn1C (stereo not drawn)	4	1
Nc1ccc([N+](=O)[O-])cc1C(F)(F)F	0	-2
N#Cc1ccc(S(=O)(=O)CCn2nc(-c3ccco3)oc2=O)cc1	-1	-3
Brc1ccc2c(c1)CNc1c(ncnc1N1CCCCC1)O2	0	-1
Cc1nc(OCc2ccc(Br)cc2F)c2ccccc2n1	3	2
CC1C(OC(=O)c2cccnc2N(C)C)CC2CC1C2(C)C (stereo not drawn)	-1	-2
Clc1cccnc1N1CC(c2cccnc2)C1	1	-2
CCCCCCc1cc2cc(C(N)=O)c(=N)oc2cc1O	16	7
COc1ccccc1N1CCC(CNc2cncc(Cl)n2)C1 (stereo not drawn)	-1	-3
CCC(C)N(Cc1ccc(OS(C)(=O)=O)cc1)C(=O)c1ccccc1Br (stereo not drawn)	0	2
CC(C)(C)c1ccc(C(=O)N2CCN(C(C(=O)Nc3ccc(Cl)cc3)C3CCCC3)CC2)cc1 (stereo not drawn)	-1	6
CS(=O)(=O)c1cc(C(=O)OCc2ccc(F)cc2Br)ccc1Cl	12	12
CCOc1ccc(-c2ccc(=O)n(CCNC(=O)c3ccc(Br)o3)n2)cc1	0	-1
COc1ccc(N(CC(=O)NCCSC(C)(C)C)S(C)(=O)=O)cc1OC	3	9
